# Assay outcomes (PubChem)
# PINK1 expr mod: PINK1 expression modulation. 410,000 compounds, 0.2% hits. AID 624263. Potency, µM (doses to about 76.6 µM), inactives show top-dose activation (PINK1 increase), usual class: activators. PINK1 immunofluorescence, high-content cytometry, 24 h; active = well fitted activation curve with a large enough effect; inconclusive = small, poorly fitted or top-dose-only effect; inactive = flat fitted curve, though single readings scatter; cell line not stated here;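 note: potency is the fitted concentration of half-maximal effect; % of control where 0% means no effect; nearly all actives have a fitted effect of over 65% in size; a mitochondrial uncoupler was the plate control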
#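 Cells are seeded, rested 12 hours, then given compound at five concentrations or DMSO for 24 hours. After fixation, blocking and antibody staining, PINK1 amount and mitochondrial localization are scored; CCCP serves as control.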
# Six1-Eya2 inh: inhibitors of human Six1/Eya2 interaction; Q15475+O00167; AlphaScreen GST-Six1/His-Eya2 binding, biochemical; stronger effect = lower value; control for the full effect not named in the record; activity change, % (test concentration not listed); 360,000 compounds, 0.56% hits; AID 651725; in the data active = activity change below about -65%; inconclusive = about -30% to -65%; inactive = above about -30%; note: % is set by controls: 0 for no effect and ±100 for the full control effect
#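 AlphaScreen luminescence read after one hour at 37 °C in darkness. Pin-transferred compounds met GST-Six1 and His-Eya2 protein (5X stock 250 nM/500 nM) plus glutathione donor and Ni-chelate acceptor beads (5X, 50 ug/mL).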
# CtBP-E1A blk: blocks the CtBP interaction with E1A | 340,000 compounds, 0.49% hits | AlphaScreen GST-E1A/His-CtBP binding, 1536-well; stronger effect = lower value; control for the full effect not named in the record | activity change, % (test concentration not listed); in the data active means activity change below about -65%; inconclusive means about -30% to -65%; inactive means above about -30%; note: % is set by controls: 0 for no effect and ±100 for the full control effect
#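 Steps: dispense buffer (Tris pH 8.0, NaCl 300 mM, TCEP 1 mM, BSA, Tween 20); add 5X protein mix (GST-E1A, His-CtBP, 125 nM each); pin 23 nL compound; 2 h at 37 °C, dark; add 5X beads (50 ug/mL); 1 h; read.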
# D2 potentiator: potentiates the human D2 dopamine receptor allosterically; P14416; DiscoveRx D2 beta-arrestin cells, luminescence, 90 min; 100% = 57 uM dopamine signal; potentiation, % (no concentration beside the values); 360,000 compounds, 0.23% hits; AID 624464; active = potentiation of 50% or more; inconclusive = 30% to 50%; inactive = 30% or less;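 note: compound concentration not given in the record; tested on top of an EC20 dose of dopamine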
#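 PathHunter D2 cells, attached overnight at 37 deg C, received compound in DMSO plus dopamine at EC20 (50 nM final) for 90 min at 37 deg C. Beta-arrestin recruitment was read as luminescence after 1 h with detection reagent at ambient temperature.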
# TRPV1 PAM: enhances activation of the human vanilloid receptor TRPV1 | potentiation, % at 8.33 µM | Q8NER1 | 320,000 compounds, 0.02% hits | TRPV1-expressing cells, Fluo-8 calcium influx, capsaicin EC20 potentiation; host cell line not named in the record; control for the full effect not named in the record | AID 540277; active means potentiation above 80%; inconclusive means 30% to 80%; inactive means below 30%; note: 0% is about no effect
# Target sequence (Q8NER1 whole entry, looked up): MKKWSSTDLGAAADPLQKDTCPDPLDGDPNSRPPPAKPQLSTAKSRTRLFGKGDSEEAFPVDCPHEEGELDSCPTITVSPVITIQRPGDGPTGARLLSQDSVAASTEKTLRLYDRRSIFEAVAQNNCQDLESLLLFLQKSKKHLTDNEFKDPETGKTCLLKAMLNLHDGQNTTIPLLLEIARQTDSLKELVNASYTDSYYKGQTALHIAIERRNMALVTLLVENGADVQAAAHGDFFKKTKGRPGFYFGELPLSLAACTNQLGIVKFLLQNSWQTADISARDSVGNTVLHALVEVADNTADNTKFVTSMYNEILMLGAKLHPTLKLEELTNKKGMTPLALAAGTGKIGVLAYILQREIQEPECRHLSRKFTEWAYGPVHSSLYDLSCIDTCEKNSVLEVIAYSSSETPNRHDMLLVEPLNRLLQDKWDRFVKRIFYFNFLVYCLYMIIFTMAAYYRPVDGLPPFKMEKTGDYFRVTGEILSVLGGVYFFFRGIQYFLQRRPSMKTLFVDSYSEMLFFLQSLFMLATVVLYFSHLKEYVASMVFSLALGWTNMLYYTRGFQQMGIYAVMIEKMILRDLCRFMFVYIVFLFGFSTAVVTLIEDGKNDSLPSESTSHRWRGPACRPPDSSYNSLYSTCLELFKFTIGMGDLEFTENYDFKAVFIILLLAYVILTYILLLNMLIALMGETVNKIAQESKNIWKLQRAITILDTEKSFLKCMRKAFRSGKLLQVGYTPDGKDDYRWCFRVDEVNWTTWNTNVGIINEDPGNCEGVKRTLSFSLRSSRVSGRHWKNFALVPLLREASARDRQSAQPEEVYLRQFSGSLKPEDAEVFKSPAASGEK
#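 Fluo-8 calcium influx in TRPV1-expressing cells, kinetic read (ex 480/em 520 nm). Compound added and read 3 min for agonist activity, followed by capsaicin at EC20 final and 2 min further read for enhancement.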
# Sfp PPTase inh: blocks B. subtilis Sfp PPTase activity; Q9F4F7; Biochemical Sfp PPTase activity, qHTS; Potency, µM, for inactives: max response, negative = inhibition, most hits filed as inhibitors; 310,000 compounds, 3.5% hits; active = well fitted inhibition curve with a large enough effect; inconclusive = small, poorly fitted or top-dose-only effect, or another doubt; inactive = no such curve, though single readings can be large or run the other way;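 note: the enzyme is Sfp with the accession as filed and its product quenches rhodamine fluorescence; potency is the fitted concentration of half-maximal effect; 0% = enzyme reaction without inhibitor and -100% = no enzyme wells; top concentration of the series not given in the record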
#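 Fluorescence-quenching assay with 15 nM Sfp, 5 uM rhodamine-CoA and 12.5 uM BHQ-2-labelled ybbR peptide in pH 7.6 Hepes/MgCl2 buffer. Enzyme was pre-incubated with compound for 15 min at room temperature. Rate was taken from the 30-min fluorescence change (525/598 nm).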
# D2 ag: agonists of human D2 dopamine receptor (beta-arrestin). P14416. DiscoveRx PathHunter D2 beta-arrestin, luminescence, 90 min; 100% = 57 uM dopamine signal. activation, % (concentration not given with the values). 360,000 compounds, 0.084% hits; in the data active = activation above about 40%; inconclusive = about 15% to 40%; inactive = below about 15%; note: the text of the record calls up to 30% inactive
#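 DiscoveRx PathHunter D2 beta-arrestin cells (2,100/well) attached overnight, then compound-stimulated 90 min at 37 C in HBSS/10 mM HEPES/0.1% Tween-20 buffer; beta-galactosidase complementation read by luminescence after 1 h at ambient temperature. Dopamine 57 uM final (EC100) as control.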
# The depositor's hits bear a star; ? = inconclusive; / = no result given; [ ] = remark or other dose. Rows were taken by chance; overall some 3.7% were active at least once.
# Sample of the layout (10 entries):
SMILES,PINK1 expr mod,Six1-Eya2 inh,CtBP-E1A blk,D2 potentiator,TRPV1 PAM,Sfp PPTase inh,D2 ag
COc1cc(OC)c2c(-c3cccc(-c4ccc(C#N)cc4)c3)cc(=O)oc2c1,10.0%,3,2,-7,/,7%,0.2
O=S1(=O)CC(N2CCCC2)CN1Cc1cn(Cc2ccc(Cl)cc2)nn1 (centres undefined),-0.1%,11,-1,/,/,/,/
C/C(=N\NC(=O)c1cccc(N/N=C(\C)c2ccncc2)c1)c1ccncc1,-1.9%,-4,-4,2,5,6%,-1.8
Cc1c(NC(=S)NC(C)(C)C)c(=O)n(-c2ccccc2)n1C,0.2%,-1,8,-12,-9,-4%,-2.4
COC(=O)c1ccccc1NC(=O)NCc1ccc2c(c1)OCO2,-0.1%,4,-2,-15,-14,-4%,-0.1
Cc1nn(Cc2ccc(Cl)cc2)c(C)c1NC(=O)CCCn1nc([N+](=O)[O-])c(Cl)c1C,0.5%,14,-5,1,-12,5%,-3.4
c1cc(CCCc2ccncc2)ccn1,0.5%,1,1,-1,-13,/,-2.2
CC1Oc2ccccc2N(CC(=O)c2cccc(Cl)c2)C1=O (centres undefined),1.7%,4,12,-3,-24,-16%,0.9
CCOC(=O)N1CCN(C(=O)c2cc3cc(F)ccc3[nH]2)CC1,1.8%,-5,-2,-2,-14,13%,0.2
CC(C)CN1CCN(Cc2cnc(-c3ccc(Cl)cc3)nc2)CC1CCO (centres undefined),0.1%,5,/,0,-7,11%,-3.8

# Results, from the first entry:
SMILES,PINK1 expr mod,Six1-Eya2 inh,CtBP-E1A blk,D2 potentiator,TRPV1 PAM,Sfp PPTase inh,D2 ag
COc1cc(OC)c2c(-c3cccc(-c4ccc(C#N)cc4)c3)cc(=O)oc2c1,10.0%,3,2,-7,/,7%,0.2
O=S1(=O)CC(N2CCCC2)CN1Cc1cn(Cc2ccc(Cl)cc2)nn1 (centres undefined),-0.1%,11,-1,/,/,/,/
C/C(=N\NC(=O)c1cccc(N/N=C(\C)c2ccncc2)c1)c1ccncc1,-1.9%,-4,-4,2,5,6%,-1.8
Cc1c(NC(=S)NC(C)(C)C)c(=O)n(-c2ccccc2)n1C,0.2%,-1,8,-12,-9,-4%,-2.4
COC(=O)c1ccccc1NC(=O)NCc1ccc2c(c1)OCO2,-0.1%,4,-2,-15,-14,-4%,-0.1
Cc1nn(Cc2ccc(Cl)cc2)c(C)c1NC(=O)CCCn1nc([N+](=O)[O-])c(Cl)c1C,0.5%,14,-5,1,-12,5%,-3.4
c1cc(CCCc2ccncc2)ccn1,0.5%,1,1,-1,-13,/,-2.2
CC1Oc2ccccc2N(CC(=O)c2cccc(Cl)c2)C1=O (centres undefined),1.7%,4,12,-3,-24,-16%,0.9
CCOC(=O)N1CCN(C(=O)c2cc3cc(F)ccc3[nH]2)CC1,1.8%,-5,-2,-2,-14,13%,0.2
CC(C)CN1CCN(Cc2cnc(-c3ccc(Cl)cc3)nc2)CC1CCO (centres undefined),0.1%,5,/,0,-7,11%,-3.8
CC(C)(CNC(=O)c1cc([N+](=O)[O-])ccc1N1CCC(Cc2ccccc2)CC1)N1CCOCC1,1.1%,?,-26,4,-16,/,0.8
O=C(CSCc1ccc(Cl)cc1)N1CCCCC1,10%,-6,0,-12,12,-1%,-0.4
O=C(c1cc(-c2ccc(Cl)cc2Cl)on1)N1CCCCCC1,0.0%,17,10,-12,-3,-10%,-3.4
COCc1cc(CN2CCCC(C(=O)c3cccc(C(F)(F)F)c3)C2)ccc1OC (centres undefined),?,-9,8,-6,-4,3%,-2.0
CCN(C1CCCCC1)S(=O)(=O)CCNC(=O)c1ccc(OC)cc1,1.8%,-1,8,-9,/,/,-0.6
COC(=O)COc1ccc(NC(=O)C2CCCO2)cc1 (centres undefined),9.0%[38.3 µM],-6,-22,5,7,12%,-0.8
COc1ccc(C(C)=O)cc1COC(=O)C1CCN(C(=O)c2ccc(Cl)cc2)CC1,-0.1%,-4,-3,2,/,/,6.0
COC(=O)c1cc(NC(=O)CN(c2ccc(OC)cc2)S(=O)(=O)c2ccc(F)cc2)ccc1Cl,0.6%,-15,-3,-36,-18,-4%,-2.4
CCN(CC)C(=O)CSc1nnc([C@@H](N)C(C)C)o1,1.0%,11,3,-1,18,-8%,-8.6
CCOC(=O)N1CCN(c2c(NCCCN(CC)c3cccc(C)c3)c(=O)c2=O)CC1,0.7%[38.3 µM],-19,-9,-13,5,-2%,-1.1
COc1ccc(N/C=C\C(=O)c2ccc3ccccc3c2)cc1,1.2%,10,0,-3,-1,12%,-5.1
C[C@H]1CN=C(Nc2ccccc2)N1CCc1ccc(F)cc1,0.0%,4,4,-21,23,/,-1.5
O=C(Nc1nnc(-c2ccccc2)o1)c1cccc(N2C(=O)CCC2=O)c1,0.1%,-30,-12,-6,0,13%,-2.4
Cn1c(=O)cc(SCC(=O)Nc2ccc3c(c2)OCO3)c2ccccc21,2.5%,-3,1,-12,-3,11%,-2.6
N=c1c2c3c(sc2nc2n1CCC2)CCCC3,1.0%,-3,-7,-16,4,-4%,2.3
# Next part.
SMILES,PINK1 expr mod,Six1-Eya2 inh,CtBP-E1A blk,D2 potentiator,TRPV1 PAM,Sfp PPTase inh,D2 ag
Cc1ccccc1N(C(=O)c1csnn1)C(C(=O)NC(C)(C)C)c1ccncc1 (centres undefined),-1.2%,4,4,-6,13,-1%,5.7
NC(=O)c1ccccc1NC(=O)Nc1cccc2ccccc12,1.6%,-1,-1,-1,5,17%,0.7
COc1cccc(C(=O)NCCS(=O)(=O)NCc2ccc3c(c2)OCO3)c1,-1.1%,-1,5,-11,-3,/,-5.5
CC(/C=C1\SC(=S)N(CCC(=O)Nc2ccccc2O)C1=O)=C\c1ccccc1,?,-6,2,?,0,10%,1.5
Nc1nc(N2CCCCC2)nc(N2CCCCC2)n1,-0.2%,-2,3,-12,-20,17%,-1.2
CC(OC(=O)COc1ccccc1Cc1ccccc1)C(=O)N(C)c1ccccc1 (centres undefined),0.9%,6,-1,-1,6,/,-5.1
Cc1nc(=O)c(-c2ccccc2)c(C)n1CCCO,-2.6%,4,-2,-9,-7,10%,-1.3
CC(C)C(=O)Nc1ccc(-c2ccc3nncn3n2)cc1,4.1%,5,2,-3,-19,10%,2.1
CC1CCN(CCc2nc3cc(NC(=O)COc4ccc(Cl)cc4)ccc3n2C)CC1,-1.8%,-2,-11,-34,3,21%,-4.4
COC(=O)c1cnc(Nc2nc(C(N)Cc3ccccc3)cs2)nc1C(F)(F)F (centres undefined),-0.6%,-17,?,1,/,/,-3.4
Nc1c(C(=O)O)sc2nc(-c3ccccc3)c3c(c12)CCCC3,1.5%,0,/,-6,12,35µM*,-0.9
CCc1ccc(-c2ccc(SCc3ccccn3)nn2)cc1,-0.1%,6,-4,2,-1,-3%,7.4
O=C(NCCO)C(=O)NCC(c1cccs1)S(=O)(=O)c1ccc(F)cc1 (centres undefined),0.0%,-2,1,-7,/,/,-1.3
Cc1ccc(C)c(Cn2nnc(C(=O)Nc3ccc4c(c3)OCCO4)c2N)c1,2.9%,-4,-11,21,0,/,4.0
Cc1cccnc1CCNC(=O)c1ccc(OC2CCN(Cc3ccccn3)CC2)cc1,-1.4%,0,-1,-11,-10,9%,1.0
O=C(COC(=O)c1ccc(F)c(S(=O)(=O)N2CCOCC2)c1)NCCc1ccc(F)cc1,3.2%,1,/,-1,/,/,-4.4
COCCCNC(=O)c1cc2cc([N+](=O)[O-])cc(OC)c2oc1=O,2.1%,1,5,-5,?,0%,2.1
Cc1ccccc1OC(C)C(=O)Nc1ccc2c(c1)OCCO2 (centres undefined),-0.8%,1,9,-17,0,-1%,-1.9
O=C(NCC(=O)N1CCCC1)c1ccc(Br)o1,2.0%,3,-13,-4,1,5%,-0.7
COC(=O)Nc1ccc(S(=O)(=O)N2CCCC(C(=O)Nc3cccc4c3OCCO4)C2)cc1 (centres undefined),3.2%[38.3 µM],-11,-7,2,-6,11%,-2.0
COc1cc2c(cc1OC)C(C)N(C(=O)c1sc(-c3cnccn3)nc1C)CC2 (centres undefined),5.4%,0,7,-2,0,22%,-2.9
CCC(C)[C@H](NC(=O)NCc1ccccc1Cl)C(=O)OC (some centres undefined),3.2%[38.3 µM],0,6,-12,10,18%,0.6
Cc1ccc(S(=O)(=O)CC(CN2CCCCC2)N2CCCCC2)cc1 (centres undefined),-2.5%,1,0,-12,-2,14%,0.0
CC1(C)CC(=O)C2=C(C1)OC(N)=C(C#N)C21CCC2(CC1)OCCO2,0.6%[38.3 µM],0,6,0,-2,4%,1.0
O=C(CCCOc1ccccc1)NCC1CCCO1 (centres undefined),?,2,7,-3,7,13%,-3.0
# Remaining list, next part.
SMILES,PINK1 expr mod,Six1-Eya2 inh,CtBP-E1A blk,D2 potentiator,TRPV1 PAM,Sfp PPTase inh,D2 ag
COc1ccc(CCNC(=O)COC(=O)COc2c(C)cc(C)cc2C)cc1OC,-0.5%,3,7,-9,-30,-3%,-2.2
O=C(c1ccco1)N1CCN(C(=O)c2[nH]ncc2[N+](=O)[O-])CC1,0.8%,3,-16,-21,0,-7%,-1.2
O=C(NCCc1ccccc1)Nc1cccc(Cl)c1,15%,2,3,-21,-16,5%,-5.6
O=C(CN1C(=O)N/C(=C\c2ccccc2OCc2ccc(C(=O)O)cc2)C1=O)Nc1ccccc1F,6.8%,-11,-14,-4,3,-4%,-1.2
COCCCNC(=O)C(=O)NCC1CCCN1S(=O)(=O)c1cccs1 (centres undefined),1.6%,-2,10,-5,5,/,5.7
Nc1ccc2nn(-c3ccccc3)nc2c1,1.4%,1,-7,-5,5,-17%,-1.4
Cc1ccc([N+](=O)[O-])cc1-c1ccc2cccc(C)c2n1,4.9%,3,-6,-11,-9,-8%,0.3
O=c1[nH]c2ccccc2c(=O)n1CCCO,0.2%[38.3 µM],27,49,2,?,7%,-1.4
O=C(CSc1nnnn1-c1ccccc1)c1cc2ccccc2oc1=O,3.4%,3,7,-5,-16,?,-4.1
Cc1cc(C)nc(SCc2cnc(C)nc2N)n1,1.7%,1,-2,-2,15,6%,-3.4
C[C@H]1CCCCO[C@H](CN(C)S(=O)(=O)c2cn(C)cn2)[C@@H](C)CN([C@@H](C)CO)C(=O)c2cc(NS(=O)(=O)c3ccccc3)ccc2O1,-0.6%,3,5,3,/,/,1.0
